Bioassay records: PubChem, National Center for Advancing Translational Sciences (NCATS)
LASV entry inh = qHTS for Inhibitors of binding or entry into cells for Lassa Virus. Potency, µM (highest dose often 37.9 µM), for the others: at the top dose activity change, negative = inhibition, most hits filed as inhibitors. Lassa virus pseudotype entry inhibition, cell reporter; control for the full effect not named in the record. AID 540256, 2011. actives 1.2% (n = 300,000); active means well fitted inhibition curve with a large enough effect; inconclusive means small, poorly fitted or top-dose-only effect, or effect the other way; inactive means flat fitted curve, though single readings scatter; tested in HEK293 cells; further: on the % scale 0 is the no-effect control and ±100 the full control effect; nearly all actives have a fitted effect of over 50% in size; luciferase read-out
RE007 growth inh = qHTS Assay for Inhibitors of the HIV-1 protein Vpr. S. pombe RE007 Vpr strain, BacTiter-Glo ATP luminescence, 24 h; control for the full effect not named in the record. Potency, µM (doses to about 92.2 µM), for inactives: top-dose activity change, negative = less growth. actives 0.21% (n = 360,000). AID 651644, 2012; active = well fitted falling curve with a large enough effect; inconclusive = small, poorly fitted or top-dose-only effect; inactive = no such curve, though single readings can be large or run the other way;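 further: on the % scale 0 is the no-effect control and ±100 the full control effect; nearly all actives have a fitted effect of over 50% in size; the assay follows cell death caused by Vpr and the record does not say whether a fall means rescue or toxicity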
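Fission yeast RE007 carrying one integrated HIV-1 vpr copy, seeded at OD 0.01 in PMG+AL medium with 23 nL pinned compound. Grown 24 h at 30 degrees; viability read by BacTiter-Glo luminescence after 5 min.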
Cruzain inh noDet = qHTS Assay for Promiscuous and Specific Inhibitors of Cruzain (without detergent). Cruzipain (Trypanosoma cruzi), P25779. purified cruzain, Z-FR-AMC fluorescence, no detergent. Potency, µM, inactives show max response, negative = inhibition, actives largely listed as inhibitors. actives 2.3% (n = 200,000); active means well fitted curve in the direction sought with a large enough effect; inconclusive means small, poorly fitted or top-dose-only effect, or another doubt; inactive means no such curve, though single readings can be large; an effect the other way counts as inactive or inconclusive;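 further: plate controls were enzyme without inhibitor for no effect and buffer without enzyme for full effect; nearly all actives have a fitted effect of over 40% in size; top concentration of the series not given in the record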
Target sequence (P25779 123-467 limits assumed): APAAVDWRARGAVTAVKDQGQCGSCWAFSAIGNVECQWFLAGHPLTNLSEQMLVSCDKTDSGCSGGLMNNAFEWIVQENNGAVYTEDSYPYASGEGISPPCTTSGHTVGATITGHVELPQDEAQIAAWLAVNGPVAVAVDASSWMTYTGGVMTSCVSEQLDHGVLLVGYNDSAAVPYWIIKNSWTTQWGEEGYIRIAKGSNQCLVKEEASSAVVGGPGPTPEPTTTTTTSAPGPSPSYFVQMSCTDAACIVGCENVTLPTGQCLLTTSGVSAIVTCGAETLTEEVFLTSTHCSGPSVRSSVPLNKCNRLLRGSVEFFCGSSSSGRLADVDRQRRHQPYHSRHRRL
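Purified cruzain at 1.5 nM, pre-incubated 15 min with compound at room temperature in 100 mM sodium acetate pH 5.5, 5 mM DTT, 0.00005% Triton X-100. Reaction started with 2 uM Z-FR-AMC; AMC fluorescence increase over 60 s gives rate.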
Cruzain inh Det = qHTS Assay for Promiscuous and Specific Inhibitors of Cruzain (with detergent) | purified cruzain, Z-FR-AMC fluorescence, 0.01% Triton | Potency, µM, for inactives: max response, negative = inhibition, actives largely listed as inhibitors | actives 0.43% (n = 200,000); active means well fitted curve in the direction sought with a large enough effect; inconclusive means small, poorly fitted or top-dose-only effect, or another doubt; inactive means no such curve, though single readings can be large; an effect the other way counts as inactive or inconclusive;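 further: plate controls were neutral wells for no effect and buffer without enzyme for full effect; nearly all actives have a fitted effect of over 40% in size; top concentration of the series not given in the record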
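Compounds were screened in titration against cruzain (1.5 nM) with 0.01% Triton X-100 to counter colloidal aggregation. Activity was the AMC fluorescence increase over 60 s after adding 2 uM Z-FR-AMC at pH 5.5.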
2A StopGo = High Throughput Screening for Foot and Mouth Disease Virus Antivirals; human cells with a luciferase reporter of 2A StopGo recoding; control for the full effect not named in the record; Potency, µM (series often up to 57.9 µM), for inactives: at the top dose signal change, negative = less light; actives 1.2% (n = 410,000); active = well fitted falling curve with a large enough effect; inconclusive = small, poorly fitted or top-dose-only effect; inactive = no such curve, though single readings can be large or run the other way; tested in HEK293T cells; further: on the % scale 0 is the no-effect control and ±100 the full control effect; nearly all actives have a fitted effect of over 45% in size; luciferase light after 4 h
SARS PLpro yeast = qHTS of Yeast-based Assay for SARS-CoV PLP; S. cerevisiae expressing SARS-CoV PLpro, growth rescue; control for the full effect not named in the record; Potency, µM (highest dose often 32.9 µM), for inactives: at the highest dose activity, positive = growth rescue; actives 0.19% (n = 330,000); AID 485353, 2010; further: 0% is about no effect; nearly all actives have a fitted effect of over 55% in size; growth read by luminescence after 48 h
MARV entry inh = qHTS for inhibitors of binding or entry into cells for Marburg Virus. Marburg virus pseudotyped entry inhibition, cell reporter; control for the full effect not named in the record; about a third of the inactives were read at about 46 µM. Potency, µM (titrated, usually from 37.8 µM), for inactives: at the highest dose activity change, negative = inhibition, hits mostly inhibitors. actives 1.8% (n = 300,000). AID 540276, 2011; active = well fitted inhibition curve with a large enough effect; inconclusive = small, poorly fitted or top-dose-only effect, or effect the other way; inactive = flat fitted curve, though single readings scatter; tested in HEK293 cells; about a fifth of its hits are not listed in these tables; further: on the % scale 0 is the no-effect control and ±100 the full control effect; luciferase read-out
NS1 function inh = qHTS Assay for Inhibitors of Influenza NS1 Protein Function. S. cerevisiae slowed by influenza A NS1, growth recovery by OD600. actives 0.4% (n = 270,000). Potency, µM (highest dose often 46.1 µM), for the others: at the top dose activity, positive = more growth; further: actives are rising curves; nearly all actives have a fitted effect of over 50% in size
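Compounds were scored for reversing the slow growth caused by influenza A NS1 in S. cerevisiae, measured by optical density at 600 nm. Assay medium contained 2% galactose at pH 6.0; NS1-free yeast of the same strain were the positive control.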
Numbers without * were called inactive; ? = inconclusive; · = not tested or not shown; & = joins results of further samples; [ ] = another dose, or the depositor's remark. Unless noted, the call rests on the fitted dose curve; in most records, active means well fitted rising curve with a large enough effect; inconclusive means small, poorly fitted or top-dose-only effect; inactive means no such curve, though single readings can be large or run the other way. Potency means the concentration at half of the fitted maximal effect.

SMILES	LASV entry inh	RE007 growth inh	Cruzain inh noDet	Cruzain inh Det	2A StopGo	SARS PLpro yeast	MARV entry inh	NS1 function inh
Cc1[nH]c2ccccc2c1C(=O)CSc1n[nH]c(N)n1	4%	14%	·	·	17%	2%	?	·
CC1CCC(C(C)C)C(OCC(O)C[N+]2(C)CCCCC2)C1 (stereo unspecified)	0%	-7%	·	·	-20%	1%	-6%&-6%[46.1 µM]	0%
CC(C)(C)n1nnnc1C(c1ccc(F)cc1)N(Cc1ccc(F)cc1)Cc1ccco1 (stereo unspecified)	?	10%	?	-0.5%	?	-20%	?	3%
CCC(=O)N1CCN(c2ccc(NC(=S)NC(=O)COc3ccccc3)cc2)CC1	·	-2%	·	·	?	-2%	·	8%
CCOC(=O)C1CCN(CC(=O)Nc2c(C(=O)OC)n(C)c3cccc(C)c23)CC1	-14%	11%	4%	3.3%	?	6%	?	-11%
COC(=O)C1=C(C)N(Cc2ccccc2)C(=NCCc2c[nH]c3ccccc23)N[C@H]1c1cccc(C(F)(F)F)c1	·	-7%	·	·	-22%	1%&-12%	·	4%
Cc1[nH]c(=O)[nH]c(=O)c1S(=O)(=O)Nc1cccc([N+](=O)[O-])c1C	19%	12%	·	·	-1%	1%	?	9%
CCc1ccc(-n2c(N3CCN(c4ccc(F)cc4)CC3)nc3ccccc3c2=O)cc1	-28%[46.1 µM]	·	-9%	-7.3%	?	·	?	·
S=C(Nc1ccccc1)Nc1cccc(Cl)c1Cl	·	-2%	·	·	22%	0%	·	5%
CC1=C(C#N)C(NC(=O)C(C)(C)C)(C(F)(F)F)C(=O)N1 (stereo unspecified)	9%	2%[3.69 µM]	-4%	0.6%	7%	2%	3%	12%
CCN1CCN(c2ccc(N)cc2C)CC1	1%	-2%	·	·	-9%	1%	?	-4%
COc1cccc(OCc2nc3ccccc3[nH]2)c1	·	0%	-4%	-1.2%	33%[activator]	-5%	·	-115%
O=C(Nc1ccc(-c2cn3ccsc3n2)cc1)C1COc2ccccc2O1 (stereo unspecified)	-24%	-26%	-29%	-3.3%	?	-5%	?	-18%
Cc1ccc(Cl)cc1NC(=O)CN1C(=O)CCc2ccccc21	-3%[46.1 µM]	·	8%	-6.4%	-21%	·	·	·
CCCc1cc(=O)[nH]c(SCC(=O)c2cc(C)n(C(C)COC)c2C)n1 (stereo unspecified)	-12%	-2%	-6%	-14%	3%	-3%	-15%	3%
Cc1cc2ccccn2c1C(=O)c1ccc(Cl)c([N+](=O)[O-])c1	13%[46.1 µM]	-8%	·	·	-23%	1%	-22%[46.1 µM]	1%
S=c1[nH]nc(CSCc2ccccc2Cl)n1-c1ccccc1	-1%	6%[3.69 µM]	-3%	-3.4%	8%	-9%	-7%	-62%
O=C(c1cccc(S(=O)(=O)NCc2ccccc2)c1)N1CCCCC1	1%	1%	·	·	21%	-3%	1%	·
COC(=O)c1ccc(C(=O)OC)c(NC(=O)/C=C/C(=O)O)c1	0%	-13%	·	·	-2%	0%	5%	10%
CCC(=O)NC(=S)NNC(=O)c1ccc(O)cc1	·	-7%	·	·	1%	1%	·	4%
COc1ccc(-n2nc3c(N4CCC(C(=O)NCCc5ccccc5C)CC4)nnc(C)c3c2C)cc1	-15%[46.1 µM]	?	·	·	-28%	-2%	?	7%
COCCCNC(=O)CCC(=O)NNc1nc2ccccc2c2nc(C)nn12	-2%[46.1 µM]	-10%	1%	-2.8%	0%&12%	-3%	-3%&-3%[46.1 µM]	·
CCc1ccccc1N(c1nc(-c2ccc(OC)c(OC)c2)no1)c1nc(-c2ccc(OC)c(OC)c2)no1	21%[46.1 µM]	·	1%	0.0%	-10%	·	-2%[46.1 µM]	·
Cc1ccc(C(=O)N2CCCC2)cc1S(=O)(=O)Nc1ccccc1	-19%	5%	-5%	2.5%	1%	1%	-18%	-3%
CCC1(O)C(=O)OCc2c1cc1n(c2=O)Cc2cc3c(N)cccc3nc2-1 (stereo unspecified)	·	-4%	·	·	1%	·	·	·
(more compounds)
SMILES	LASV entry inh	RE007 growth inh	Cruzain inh noDet	Cruzain inh Det	2A StopGo	SARS PLpro yeast	MARV entry inh	NS1 function inh
COc1ccc(-c2[nH]ncc2-c2cnn(-c3ccccc3)c2)c(O)c1	-1%	3%	-5%	-14%	12%	-21%	-3%	-98%
C=CCn1c(=O)[nH]c2cc(C(=O)N3CCN(c4cc(C)ccc4C)CC3)ccc2c1=O	-20%	8%	-3%	-5.7%	-9%	-6%	-25%	-1%
CC(C)(C)OC(=O)[C@H](Cc1ccccc1)NC(=O)c1nc[nH]c1C(=O)N1CCN(c2ccccc2)CC1	·	-5%	·	·	-11%	0%	·	-7%
CCOC(=O)N1CCC(c2[nH][nH]c(=O)c2C)CC1	-12%	17%	-10%	4.0%	-2%	1%	11%	-1%
O=S(=O)(c1ccccc1)c1nc(-c2cccs2)oc1SCc1ccccc1F	17%[46.1 µM]	·	16%	-5.6%	4%	·	5%[46.1 µM]	·
Brc1c(-c2ccc3c(c2)OCO3)nc2ncccn12	12%[46.1 µM]	-17%	·	·	24%	-2%	1%[46.1 µM]	0%
Cc1nnc(SCC(=O)NCC2CCCO2)n1-c1ccccc1 (stereo unspecified)	-1%	1%	-5%	3.7%	-19%	5%	0%	-7%
CC1=C(C(=O)O)N2C(=O)C(NC(=O)c3nn(C)cc3[N+](=O)[O-])C2SC1 (stereo unspecified)	?	6%	·	·	-16%	-1%	5%	8%
O=C(CNc1ccccc1)N/N=C/c1ccc2c(c1)OCO2	-4%	18%	12%	-1.4%	47%[activator]	2%	0%	-1%
N/C(=N\OC(=O)COc1ccc(Cl)cc1)c1ccc(Cl)cc1	9%	-4%	-5%	-2.9%	-8%	16%	8%	11%
c1ccc2c(c1)CCNC2c1ccncc1 (stereo unspecified)	7%	-11%	·	·	-11%	5%	-13%	4%
CCc1ccc(C(=O)c2cn(CC(=O)Nc3ccc4c(c3)OCCO4)c3ccc(F)cc3c2=O)cc1	-10%[46.1 µM]	·	-14%	-2.0%	17%	·	-3%[46.1 µM]	·
O=C(CCCn1c(=S)[nH]c2cc3c(cc2c1=O)OCO3)NCc1ccccc1Cl	·	7%	·	·	-12%	0%	·	2%
O=C(NCCCN1CCc2ccccc2C1)C1CCN(S(=O)(=O)N2CCC3(CC2)OCCO3)CC1	-7%	-7%	·	·	-14%	1%	-2%	·
NNC(=O)c1cccc(S(=O)(=O)Nc2cccc(C(F)(F)F)c2)c1	·	-10%	·	·	19%	0%	·	3%
COc1ccc(C(=O)N2CCNC(=O)C2CC(=O)Nc2ccc(C)c(C)c2)cc1 (stereo unspecified)	?	4%	·	·	-14%	-1%	27%	5%
Fc1ccc(OCCCn2ccnc2)cc1	·	-7%	·	·	-8%	1%	·	0%
COc1ccc(CCN2CCCC(CN(C)Cc3cccc(OC)c3)C2)cc1 (stereo unspecified)	?	-11%	·	·	-8%	3%	?	11%
Cc1ccc(OCC(=O)N2CC(C)OC(C)C2)c([N+](=O)[O-])n1 (stereo unspecified)	3%	-13%	·	·	-2%	-2%	-6%[46.1 µM]	-2%
COc1ccc2ncccc2c1Cc1c(OC)ccc2ncccc12	-17%[46.1 µM]	-20%	·	·	?	·	?	·
CCCCN(C(=O)c1ccc(C)o1)c1c(N)n(CCCC)c(=O)[nH]c1=O	9%	-2%	·	·	-14%	0%	6%	·
COc1ccc(/C=N/NC(=O)CCC(=O)Nc2ccc(F)cc2)c(OC)c1	0%	2%	·	·	7%	1%	22%	-2%
CC1=C(C(=O)Nc2ccccc2C)C2(CCCC2)C(C(N)=O)C(=O)N1 (stereo unspecified)	-30%[14.3 µM]	5%	-4%	-1.1%	-9%	-2%	10%	10%
O=C(CSc1nc2ccccc2n1Cc1ccccc1F)NCc1ccccc1	-3%[46.1 µM]	·	5%	-7.8%	-16%	·	·	·
CC(C)N(C)C1CCN(C(=O)Nc2ccc(Cl)cc2)CC1	23%	-14%	3%	8.5%	9%	-3%	-2%	-14%
(next part)
SMILES	LASV entry inh	RE007 growth inh	Cruzain inh noDet	Cruzain inh Det	2A StopGo	SARS PLpro yeast	MARV entry inh	NS1 function inh
COC(=O)CCCC1=CC2=CC(=O)C(C)(OC(=O)c3cccs3)C(=O)C2=CN1Cc1ccc2c(c1)OCO2 (stereo unspecified)	·	4%	·	·	-13%	0%	·	?
CCc1nc2ccccc2c(C(=O)Nc2ccc(F)cc2)c1C	·	-16%	·	·	-4%	-2%	·	-4%
CC(=O)Nc1cccc2c1Cc1ccccc1-2	·	4%	·	·	82%[activator]	-7%	·	-28%
COc1ccccc1OCC(=O)N(Cc1nc(-c2ccccc2)no1)C1CCCCC1	-23%	4%	?	-5.2%	-21%	-25%	?	-46%
Cc1cc(C)n(C(=O)CNC(=O)c2ccc3c(c2)OCCO3)n1	23%	11%	-7%	3.8%	26%	-1%	2%&2%&2%	-2%
COc1ccc(C(=O)NCCc2cccc(Cl)c2)cc1OC1CCN(C(C)=O)CC1	-28%	-1%	·	·	-18%	-1%	15%	1%
O=[N+]([O-])c1ccccc1S(=O)(=O)Nc1cccc(-c2ccc(N3CCOCC3)nn2)c1	1%	6%	·	·	71%[activator]	1%	-5%	·
O=C(Cn1c(=O)oc2ccccc21)Nc1ccc(S(=O)(=O)N2CCCCC2)cc1	-2%	11%	-11%	-0.3%	-13%	1%	16%	-12%
O=C(NC1CCN(Cc2ccccc2)CC1)c1ccc(Cn2c(=O)c3ccccc3n(Cc3cccc(F)c3)c2=O)cc1	-1%[46.1 µM]	·	7%	0.0%	-24%	·	1%[46.1 µM]	·
Cc1sc2ccccc2[n+]1CCC(C)S(=O)(=O)[O-] (stereo unspecified)	8%	-11%	4%	2.8%	3%	-2%	7%	-1%
Cc1cc(C)cc(NC(=O)c2nnn(Cc3cccc(Br)c3)c2N)c1	-5%[46.1 µM]	·	-6%	-4.3%	26%	·	4%[46.1 µM]	·
CC(C(=O)O)n1c(-c2ccn[nH]2)n[nH]c1=S (stereo unspecified)	·	0%	·	·	-7%	0%	·	5%
COc1ccc(OCc2cccc(C(=O)O)c2)cc1	?	-18%	-1%	1.5%	1µM*	-13%	?	-53%

The order is random. About 4.7% of those tested had a hit in this group.
